D2 PAM: positive allosteric modulators of human D2 dopamine receptor; AID 624464; P14416; DiscoveRx D2 beta-arrestin cells, luminescence, 90 min; 100% = 57 uM dopamine signal; potentiation, % (test concentration not listed); hit rate 0.23% among 360,000; active = potentiation of 50% or more; inconclusive = 30% to 50%; inactive = 30% or less;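 also: compound concentration not given in the record; tested on top of an EC20 dose of dopamine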
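PathHunter D2 cells, attached overnight at 37 deg C, received compound in DMSO plus dopamine at EC20 (50 nM final) for 90 min at 37 deg C. Beta-arrestin recruitment was read as luminescence after 1 h with detection reagent at ambient temperature.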
CtBP-E1A blk: inhibitors of CtBP/E1A interaction. activity change, % (no concentration beside the values). hit rate 0.49% among 340,000. AID 651724. AlphaScreen GST-E1A/His-CtBP binding, 1536-well; active compounds read low; control for the full effect not named in the record; in the data active means activity change below about -65%; inconclusive means about -30% to -65%; inactive means above about -30%; also: % is scaled to controls: 0 for no effect and ±100 for the full control effect
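Steps: dispense buffer (Tris pH 8.0, NaCl 300 mM, TCEP 1 mM, BSA, Tween 20); add 5X protein mix (GST-E1A, His-CtBP, 125 nM each); pin 23 nL compound; 2 h at 37 °C, dark; add 5X beads (50 ug/mL); 1 h; read.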
TRPML1 ag: activates the human TRPML1 channel; Q9GZU1; TRPML1-expressing cells, Ca2+ dye fluorescence, FDSS; host cell line not named in the record; reference of the full effect not given here; activation, % (concentration not given with the values); hit rate 0.12% among 410,000; AID 624414; in the data active = activation above about 50%; inconclusive = about 30% to 50%; inactive = below about 30%; also: 0% is about no effect; the text of the record puts the active cut at 80%
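Tetracycline-induced TRPML1-DL cells are seeded and incubated overnight before loading with a no-wash Ca2+ dye and quencher. Agonist activity is taken from the 110 s fluorescence read following compound pin-transfer on an FDSS, before EC80 54-4 challenge.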
Six1-Eya2 inh: blocks human Six1 binding to Eya2; AlphaScreen GST-Six1/His-Eya2 binding, biochemical; active compounds read low; control for the full effect not named in the record; hit rate 0.56% among 360,000; activity change, % (concentration not given with the values); AID 651725; in the data active = activity change below about -65%; inconclusive = about -30% to -65%; inactive = above about -30%; also: % is scaled to controls: 0 for no effect and ±100 for the full control effect
Target sequence (O00167 whole entry, looked up): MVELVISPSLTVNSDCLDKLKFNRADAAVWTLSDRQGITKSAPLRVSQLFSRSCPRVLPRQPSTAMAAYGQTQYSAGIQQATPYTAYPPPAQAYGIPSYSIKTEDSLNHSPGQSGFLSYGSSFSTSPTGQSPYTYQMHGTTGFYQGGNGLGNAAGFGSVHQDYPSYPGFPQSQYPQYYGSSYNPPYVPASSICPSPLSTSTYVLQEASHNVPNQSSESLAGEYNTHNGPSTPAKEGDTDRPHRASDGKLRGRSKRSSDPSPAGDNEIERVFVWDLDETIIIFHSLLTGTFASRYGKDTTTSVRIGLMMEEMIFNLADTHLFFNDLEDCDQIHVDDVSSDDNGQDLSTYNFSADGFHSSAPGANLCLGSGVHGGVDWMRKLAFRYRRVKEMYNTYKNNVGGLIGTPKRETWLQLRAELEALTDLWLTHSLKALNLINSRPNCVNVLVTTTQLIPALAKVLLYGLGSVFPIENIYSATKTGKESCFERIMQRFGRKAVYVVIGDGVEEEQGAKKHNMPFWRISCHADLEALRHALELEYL
Target sequence (Q15475 whole entry, looked up): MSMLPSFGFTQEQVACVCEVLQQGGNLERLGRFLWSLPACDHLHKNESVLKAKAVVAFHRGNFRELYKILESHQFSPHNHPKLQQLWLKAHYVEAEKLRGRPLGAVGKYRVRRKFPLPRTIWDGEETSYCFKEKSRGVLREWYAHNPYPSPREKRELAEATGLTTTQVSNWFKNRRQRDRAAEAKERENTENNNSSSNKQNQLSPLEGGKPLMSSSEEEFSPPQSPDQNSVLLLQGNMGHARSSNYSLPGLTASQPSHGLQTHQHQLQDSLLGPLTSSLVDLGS
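AlphaScreen luminescence read after one hour at 37 °C in darkness. Pin-transferred compounds met GST-Six1 and His-Eya2 protein (5X stock 250 nM/500 nM) plus glutathione donor and Ni-chelate acceptor beads (5X, 50 ug/mL).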
TRPV1 PAM: enhances activation of the human vanilloid receptor TRPV1. Q8NER1. potentiation, % at 8.33 µM. AID 540277. hit rate 0.02% among 320,000. TRPV1-expressing cells, Fluo-8 calcium influx, capsaicin EC20 potentiation; host cell line not named in the record; control for the full effect not named in the record; active means potentiation above 80%; inconclusive means 30% to 80%; inactive means below 30%; also: 0% is about no effect
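TRPV1-expressing cells were cultured overnight at 35.5C and loaded with Fluo-8 calcium dye for 40 to 90 min at room temperature. After a 10 s baseline, compound was added and calcium influx was read kinetically for 3 min (ex 480/em 520 nm).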
TRPML1 blocker: blocks the human TRPML1 channel; Q9GZU1; TRPML1-inducible cells, Ca2+ dye fluorescence, FDSS; active compounds read low; inhibition of EC80 agonist-evoked calcium signal; activity change, negative = inhibition, % (concentration not given with the values); hit rate 0.02% among 390,000; AID 624415; in the data active means activity change below about -50%; inconclusive means about -30% to -50%; inactive means above about -30%;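 also: stimulus is agonist 54-4 at its EC80 concentration; % is scaled to controls: 0 for no effect and ±100 for the full control effect; the text of the record puts the active cut at -80%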
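Calcium fluorescence in TRPML1-DL cells induced overnight with Tet: a 110 s read after compound pin addition, then a 110 s antagonist read after challenge with 54-4 at 4 uM final (EC80).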
Starred values were filed as active, the others as inactive; u = inconclusive; x = no result given; & = joins results of further samples.

SMILES	D2 PAM	CtBP-E1A blk	TRPML1 ag	Six1-Eya2 inh	TRPV1 PAM	TRPML1 blocker
CN(CC(=O)Nc1ccc(Cl)c(C(F)(F)F)c1)C(=O)c1cccc2cccnc12	-13	-13	-0.7	-1	14	-8
COc1ccccc1NC(=O)c1ccc(NC(=O)c2cc3c(s2)CCC3)cc1	-10	2	1.1	0	-1	-16
CCN(CC)CCCN1C(=O)c2oc3ccccc3c(=O)c2C1c1cccc(OC)c1OC (stereo unspecified)	-24	2	0.0	7	8	-3
Clc1ccc2c(c1)C=Nc1c(NCc3ccccc3)ncnc1O2	5	2	-0.5	3	-18	-22
Nc1nnnn1/N=C/C(Br)=C/c1ccccc1	-2	1	0.5	4	9	7
CCCNC(=O)c1onc(CSc2cccc(OC)c2)c1C(=O)NCCC	-6	7	0.7	4	u	0
CCCCc1cc(=O)oc2cc(C)cc(OC(C)C(=O)NCc3ccccn3)c12 (stereo unspecified)	1	3	-0.9	4	-2	-9
CCCCOC(=O)C1Cc2ccccc2C(=O)O1 (stereo unspecified)	-27	6	-0.3	7	u	7
OCC1(Cc2ccc(F)cc2F)CCCN(Cc2ccc(Cl)cc2)C1 (stereo unspecified)	-76	x	x	-16	-5	x
O=C(Cn1cnc2ccccc2c1=O)N1CCN(Cc2ccc3c(c2)OCO3)CC1	-4	-7	0.8	7	4	-6
C=CCn1c(SCC(=O)NC(=O)NCc2ccco2)nc2sc(CC)cc2c1=O	10	-2	1.7	-4	4	36
CCOc1cc2c3c(c1)C1(C(=O)N3C(C)(C)C=C2C)C(C#N)=C(N)Oc2cc(O)ccc21 (stereo unspecified)	-3	-17	0.7	-16	2	80
O=C(N/N=C/c1cnc(N2CCCCC2)s1)c1ccc(C(F)(F)F)cc1	7	x	2.6	1	-3	19
COc1ccc(CCNc2c([N+](=O)[O-])ncn2C)cc1OC	-18	x	-0.5	-2	7	33
COc1cccc(CCc2nnc(CCC(=O)NCCC3CCCCO3)o2)c1 (stereo unspecified)	-4	3	-0.8	7	6	26
C=CCOc1ccc(/C(O)=C2/C(=O)C(=O)N(CCCn3ccnc3)C2c2ccco2)cc1 (stereo unspecified)	-4	x	-0.1	0	4	0
CCCN1CCC(NC(=S)Nc2ccc([N+](=O)[O-])cc2)CC1	-5	x	0.6	0	6	-11
CCC(C)[C@H](NC(=O)NCc1ccc(S(N)(=O)=O)cc1)C(=O)OC (stereo partly specified)	-9	4	0.0	7	-2	1
CCC(C)Sc1ccc([C@H]2N[C@@](C)(C(=O)OC)[C@H]3C(=O)N(C)C(=O)[C@@H]23)cc1 (stereo partly specified)	-33	3	-0.6	1	x	12
COC(=O)[C@@]1(Cc2ccc(F)cc2)[C@H]2c3cc(C(=O)N(C)C)n(Cc4ccc(S(C)(=O)=O)cc4)c3C[C@H]2CN1C(=O)c1ccccc1	x	-6	0.2	-9	x	x
Cc1c(CN2CCCCC2)c(O)n(CCCO)c(=O)c1C#N	10	-2	2.8	3	2	34
O/N=C1/C2C3CC4C5C3C1C5C1(OCCO1)C42 (stereo unspecified)	-6	3	-0.5	6	0	8
COc1ccc([C@H]2CC(=O)C=C(c3ccc(OC)nc3)C2)cc1	-9	0	-0.1	-1	-2	-19
O=C(NCc1ccccc1Cl)c1cccc(NC2=NC3CS(=O)(=O)CC3S2)c1 (stereo unspecified)	-5	-5	-0.6	-1	1	20
O=C(CCCC(=O)N/N=C\c1ccccn1)N/N=C\c1ccccn1	1	-5	0.3	2	5	9
CC(NC(=O)c1ccccc1F)c1nnc(SCC(=O)NC2=NCCS2)n1C (stereo unspecified)	-2	7	-0.1	0	3	-4
CCOC(=O)C1=CC[C@H]2c3c(c4ccc(OC)cc4n3C)C(=O)C1N2S(=O)(=O)c1ccc(C)cc1	-9	-1	-0.2	6	-14	-5
O=C(c1ccco1)c1cn(CC(=O)N2CCCCC2)c2ccccc12	-12	4	-0.2	7	1	-2
CCNc1oc(-c2ccc(OC)cc2)nc1S(=O)(=O)c1ccc(Br)cc1	-7	0	0.1	3	4	-2
COc1ccc(NC2=C(Cl)C(=O)N(CCc3ccccc3)C2=O)c(OC)c1	-7	u	2.1	u	-2	9

Laid out differently: results already given.
> Cc1c(CN2CCCCC2)c(O)n(CCCO)c(=O)c1C#N
  D2 PAM: 10	CtBP-E1A blk: -2	TRPML1 ag: 2.8	Six1-Eya2 inh: 3	TRPV1 PAM: 2	TRPML1 blocker: 34
> CCCN1CCC(NC(=S)Nc2ccc([N+](=O)[O-])cc2)CC1
  D2 PAM: -5	CtBP-E1A blk: x	TRPML1 ag: 0.6	Six1-Eya2 inh: 0	TRPV1 PAM: 6	TRPML1 blocker: -11
> O=C(c1ccco1)c1cn(CC(=O)N2CCCCC2)c2ccccc12
  D2 PAM: -12	CtBP-E1A blk: 4	TRPML1 ag: -0.2	Six1-Eya2 inh: 7	TRPV1 PAM: 1	TRPML1 blocker: -2
> O=C(NCc1ccccc1Cl)c1cccc(NC2=NC3CS(=O)(=O)CC3S2)c1 (stereo unspecified)
  D2 PAM: -5	CtBP-E1A blk: -5	TRPML1 ag: -0.6	Six1-Eya2 inh: -1	TRPV1 PAM: 1	TRPML1 blocker: 20

Entries of single compounds as entered above. Values in the order: D2 PAM | CtBP-E1A blk | TRPML1 ag | Six1-Eya2 inh | TRPV1 PAM | TRPML1 blocker
`Cc1c(CN2CCCCC2)c(O)n(CCCO)c(=O)c1C#N` reads 10 | -2 | 2.8 | 3 | 2 | 34
`Nc1nnnn1/N=C/C(Br)=C/c1ccccc1` reads -2 | 1 | 0.5 | 4 | 9 | 7
`CCCNC(=O)c1onc(CSc2cccc(OC)c2)c1C(=O)NCCC` reads -6 | 7 | 0.7 | 4 | u | 0

More entries.
SMILES	D2 PAM	CtBP-E1A blk	TRPML1 ag	Six1-Eya2 inh	TRPV1 PAM	TRPML1 blocker
OCC[C@@H]1C[C@H](O)[C@@H](O)[C@@]2(OCCCc3cc(Cl)ccc32)O1	-3	4	0.3	12	x	x
Clc1ccc(CNC23CN4CN(CN(C4)C2)C3)c(Cl)c1	-13	4	-0.1	6	-4	19
O=C1CC(c2ccc(O)cc2)Oc2cc(O)cc(O)c21 (stereo unspecified)	7	4	-0.6	-2	-4	-10
CCn1c(SCC(=O)Nc2ccc3c(c2)OCO3)nnc1C(C)C	-2	7	-0.6	-1	8	7
Cc1cc2n(c(=O)c1C#N)CCCN2c1cccc(Cl)c1	8	1	-0.8	0	-5	3
CCOC(=O)N/N=C1\CCc2ccccc21	-9	-3	-0.8	-5	0	0
CCCCOc1ccc(C2CC(=O)N(C)C2=O)cc1 (stereo unspecified)	-14	-6	-1.3	13	-5	-7
CCS(=O)(=O)N1CCC(C(=O)Oc2ccccc2Cl)CC1	-6	x	-0.7	0	-18	28
Cc1ccc(Nc2nnc(SCC(=O)c3ccc(Br)s3)s2)c(C)c1	-1	-18	1.1	-11	u	-11
CCOC(=O)c1sc(NC(=O)CSc2n[nH]c(-c3ccccc3)n2)c(C#N)c1C	14	-11	-0.4	-11	-8	29
O=c1[nH]cnc2scc(C3COc4ccccc4O3)c12 (stereo unspecified)	9	-2	0.4	-1	u	7
C/C=C/C(=O)Nc1nnc(-c2ccccc2C)s1	-5	x	0.1	2	24	0
C=C(NS(=O)(=O)c1ccc(C)cc1)C(=O)OC	x	2	-0.5	0	x	8
O=C(CSc1nnnn1-c1ccccc1)Nc1ncc(Cc2cc(Cl)ccc2Cl)s1	26	5	-0.3	-1	-3	36
COC(=O)c1ccc2nc(-c3ccccc3)c(Cc3ccccc3OC)n2c1	-9	6	2.2	1	x	54
O=C(COC(=O)c1c[nH]c(=O)[nH]c1=O)Nc1ccccc1	-5	18	3.0	-1	6	4
Cc1ccc(-n2c(CNc3ccc(F)cc3)nnc2SCC(N)=O)cc1	-4	0	-0.1	13	0	-2
N#Cc1c(NC(=O)CSc2nc(-c3ccccc3)cc(C(F)(F)F)n2)sc2c1CCC2	-20	0	0.6	-2	18	-4
COc1ccc(NC2CS(=O)(=O)CC2NCc2ccccc2)cc1 (stereo unspecified)	-10	-3	-0.1	-8	3	-3
Cc1ccc(-c2[nH]c(-c3ccccc3)nc2SCC(=O)NCC2CCCO2)cc1 (stereo unspecified)	-12	-8	5.0&2.8	-1	22	-13&12
O=C1NC(Cc2ccc(O)cc2)c2nc3ccc(Br)cc3c(=O)n2-c2cc3ccccc3cc21 (stereo unspecified)	-2	1	-0.8	-12	x	-2
OCCN=C(c1ccccc1)C12CN3CN(CN(C3)C1)C2	-19	4	-1.9	2	-3	0
CSCCC(NC(=O)c1ccoc1C)C(=O)O (stereo unspecified)	3	4	-0.4	4	-1	13
COc1cccc(C2=N/C(=C\N(C)C)C(=O)O2)c1	-3	2	-0.8	-3	-7	0
O=S(CC(O)(c1ccccc1)c1ccccc1)CC(O)(c1ccccc1)c1ccccc1	-16	-10	1.0	34	x	18
Cn1ncc(Cl)c(Oc2ccc(C(C)(C)C)cc2)c1=O	-13	15	0.7	12	-10	-3
CCCCN1C(=S)NC[C@@H]1Cc1ccc(O)cc1	2	4	-0.6	-6	-9	8
Cc1cccc(Cn2cnc3c(nnn3Cc3ccc(Cl)cc3)c2=O)c1	-3	34	1.6	23	0	7
Cc1nc2ncnn2c(C)c1CCC(=O)Nc1csc(N)n1	0	-16	-0.7	-15	4	-4
O=[N+]([O-])c1nccn1CC(O)CO (stereo unspecified)	x	10	-0.5	9	x	x
CCOC(=O)/C(C#N)=C1\Nc2ccccc2N=C1N(CC(C)C)CC(C)C	-16	-1	4.3	-5	4	-7
COc1ccc(C(CC(=O)c2ccc(C)cc2)Sc2ccccc2N)cc1 (stereo unspecified)	-25	-3	0.4	-19	x	30
Cc1ccc2c(CC(=O)O)coc2c1C	-13	0	-0.7	-4	-2	1
CCn1cc(S(=O)(=O)NCCc2ccc(OC)c(OC)c2)cn1	-7	5	0.2	13	3	-21
Cc1cc(C)c2c(NC(N)=S)n[nH]c2n1	-3	-6	-0.2	2	-17	4
Cc1noc(C)c1C(=O)NNc1ccc(C(C)C)cc1	-10	3	-0.3	8	-12	12
CC(C)C[C@H]1CN(CCCC[C@H]2CNC(=O)C(=O)N2CCc2ccc(O)cc2)C(=O)C(=O)N1CCc1ccc(O)cc1	x	1	-0.5	0	x	x
Cc1[nH]n(-c2ccccc2)c(=O)c1N=Nc1ccc(C(N)=O)cc1	4	9	0.2	1	11	3
COc1ccc(NS(=O)(=O)c2ccc3oc(SC)nc3c2)cc1	7	4	-0.5	-5	8	-2
O=C(CCN1C(=O)[C@H]2CC=CC[C@H]2C1=O)NCc1nc(-c2ccc(Cl)cc2)no1	-2	1	-0.6	2	1	4
Cc1cccc(N(C(=O)CS(=O)CC(=O)Nc2ccc3c(c2)OCO3)C(C)C(=O)NC2CCCC2)c1C (stereo unspecified)	-13	x	-0.6	-1	13	-9
CC1CCc2nn(CC(=O)Nc3ccc(F)cc3F)cc2C1 (stereo unspecified)	-5	10	0.9	5	-5	2
O=C(CSc1nnc2ccc3ccccc3n12)c1ccc(F)cc1	x	x	2.6	x	-23	-10
C=CCNC(=S)N/N=C/c1ccc(-c2ccc(OC)cc2)o1	1	-18	1.7	-20	-5	13
O=C(c1ccc([N+](=O)[O-])cc1)N(Cc1ccccc1)Cc1ccccc1	-7	-4	2.8	-7	x	44
Cc1cc(OCc2nc3ccccc3s2)ccc1N	-2	-15	0.8	-20	-5	8
Cc1ncc(C[n+]2ccc(C)c(C)c2)c(N)n1	0	5	-0.5	0	0	4

This is a random part of the collection; overall some 0.95% were active at least once.
